NPYLR7 agonist = mosquito NPYLR7 agonism. HEK293T NPYLR7/Galpha15, GCaMP6s calcium fluorescence. activation, % at 10 µM. hit rate 0.15% among 270,000; in the data active means activation above about 40%;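 further: 0% = vehicle and 100% = reference agonist at the receptor; some compounds past the cut are filed as inactive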
NPYLR7 agonist max-min = also measured in NPYLR7 agonist; calls as there; activation, %; measured here: Max-Min RFU normalised activation; some inactives read as strong as hits;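 span of the calcium signal over five minutes; 0% = vehicle and 100% = native peptide agonist; compound fluorescence can raise it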
Active calls of the source: *; & = joins results of further samples.

SMILES	NPYLR7 agonist	NPYLR7 agonist max-min
Cn1nccc1-c1ccc2c(n1)C(=O)N(C1(C(=O)N[C@@H]3CCCc4ccccc43)CC1)C2	16	30
N#Cc1c(N)nc(SCC(N)=O)c(C#N)c1-c1ccc(Br)cc1	11	6
CC(C)NS(=O)(=O)CC1(C)C2CCC1(C)C(=O)C2Br (stereo not drawn)	-1	-1
N#Cc1cccc(NC(=O)Cn2cccc(-c3nc(-c4ccc(Cl)cc4)no3)c2=O)c1	-1	-3
Cc1ccc(-n2ncc3c(C)nn(Cc4cccc(F)c4)c(=O)c32)cc1C	3	3
Cc1cc(=O)n(Cc2ccccc2F)c2cc(OCC(=O)NCCCN3CCN(C)CC3)ccc12	3	1
CCCN(Cc1c(C)nn(-c2cccc(F)c2)c1N1CCN(C)CC1)C(=O)Cc1ccc(OC)cc1	0	10
Cc1ccccc1C1CC(=O)NC(SCc2ccc(Cl)cc2)=C1C#N (stereo not drawn)	1	-1
O=C(Cn1ccn2nc(-c3ccc(Cl)cc3)cc2c1=O)NC1CCCCC1	21	12
CCc1cccc(CC)c1NC(=O)NCCCN1CCCC1	5	1
N#CC1C(=N)Oc2cc(O)ccc2C1c1ccccc1I (stereo not drawn)	82*	83*
CCOC(=O)c1cccnc1N1CCCC2(C1)C(=O)Nc1ccccc12 (stereo not drawn)	4	4
COc1ccc(-c2nc3ccc(Cl)cn3c2NCc2ccccc2)cc1OC	4&-4	10&-4
O=C(Nc1cccnc1N1CCN(C(=O)C2C[C@H]2c2ccccc2)CC1)c1ccc2c(c1)OCO2 (stereo partly drawn)	11	3
Cc1cc(C)n(CC(C)NCc2ccc3c(c2)n(C)c(=O)n3C)n1 (stereo not drawn)	5	3
O=S(=O)(c1ccccc1)c1ccc(O)cc1	-3	-1
COCc1nc(NCC2CCS(=O)(=O)C2)c2cnn(C)c2n1 (stereo not drawn)	2	-1
Cc1ccc2[nH]cc(-c3ncccc3NC(=O)C(C)C)c2c1	2	-1
Cc1ccc2nc(-c3ccccc3Cl)c(NC3CCCCC3)n2c1	-3&-3	0&-4
CC1CN(c2cc(Cl)nc(SCC(=O)NCc3cccnc3)n2)CCN1C(=O)C1CC1 (stereo not drawn)	19	17
N#CC(C#N)=Cc1ccc(OC(=O)COc2ccccc2)cc1	-8	-9
O=c1[nH]c2ccc(S(=O)(=O)NCc3ccccn3)cc2s1	0	-4
Cc1ccc(C(C2Sc3ncnn3C2=O)N2CCCCC2)cc1 (stereo not drawn)	-4	2
CCC(C)(CO)NCc1cccc(F)c1F (stereo not drawn)	17	4
COc1cccc(C(NC(=O)C2CCN(CCOc3ccc(Cl)cc3)CC2)c2ccccn2)c1 (stereo not drawn)	12	3
O=C(NC1CCCCC1)c1csc(CSc2nnc(-c3ccccc3Cl)n2-c2ccccc2Cl)n1	4	9
CCCc1cc(NCc2cccnc2)n2c(nc3ccccc32)c1C#N	3	1
COc1ccc(OC)c(-c2cccc(-c3cccc(NC(=O)C(C)Cl)c3)n2)c1 (stereo not drawn)	3	8
CC(C#N)(NC(=O)Cn1cc(I)cn1)C1CC1 (stereo not drawn)	3	0
CC(C)COC(=NC(C)c1ccccc1)NC(=O)c1cccc(F)c1 (stereo not drawn)	17	14
COc1ccccc1N1CCN(C(=O)c2ccccc2N2CCC(N)CC2)CC1	-3	5
COc1cc(Cl)c(C)cc1NC(=O)c1cccnc1Nc1cccc(C(F)(F)F)c1	-16	-26
O=c1c(C=NC2CC2)c(-c2ccccc2)[nH]n1-c1nc2ccccc2s1	3	1
N#CCCSc1nc(-c2cccs2)cc(C(F)(F)F)c1C#N	4	4
COCCNC(=O)CCN(CCc1ccccc1)c1nc(C2CC2)nc2cc(Cl)ccc12	11	11
COc1cccc(CNC(=O)C2CCN(C(=O)[C@@H](C)NC(=O)Nc3c(C)cccc3C(C)(C)C)CC2)c1	12	18
CC(C)(C)c1ccc(Cn2cnc([N+](=O)[O-])n2)cc1	11	4
O=S1(=O)CCC(n2nc(-c3ccco3)cc2NS(=O)(=O)c2cccc(Cl)c2)C1 (stereo not drawn)	-2	-3
CCC(C)N(Cc1ccc(OC)c(OS(=O)(=O)c2ccc(F)cc2)c1)C(=O)c1ccc([N+](=O)[O-])cc1 (stereo not drawn)	24	27
COc1ccc(Cl)c(-c2nccn2CCNC(C)=O)c1F	25	14
COc1ccc(N2CCN(C(=O)C3CCCCC3C(=O)NCc3ccncc3)CC2)cc1 (stereo not drawn)	-6	-9
COC(=O)C(Cc1ccccc1)NC(=O)CCC(=O)c1ccc(SC)cc1 (stereo not drawn)	-8	-11
COc1ccccc1N1CCC(N2CCN3C(=O)CNC(=O)C3C2)CC1 (stereo not drawn)	15	12
CC(=O)NC1CCN(Cc2cccc(C(=O)Nc3ncc(C)s3)c2)C1 (stereo not drawn)	9	6
Cc1c(C(=O)NCc2ccccc2C(F)(F)F)sc(=O)n1Cc1ccccn1	-2	-5
O=C(Nc1ccc(Cl)c2ncsc12)c1ccc(Br)s1	3	7
CCOC(=O)c1cc(-c2cccc(NC(=O)c3cnn(C)c3Cl)c2)n(-c2ccccn2)n1	23	11
CCn1cc(NC(=O)N2CCN(c3ncc(Cl)cc3Cl)CC2)cn1	2	2
Cc1noc(C)c1COc1ccccc1C(=O)N1CCC(C)(O)C1 (stereo not drawn)	10	12
O=S(=O)(c1cccs1)N1CCN(c2ccc(-c3cccnc3)nn2)CC1	0	20
COC(=O)Cn1c(=O)c2c(nc3n2CCCN3c2cccc(Cl)c2)n(C)c1=O	6	2
Cc1nn(Cc2ccc(F)cc2)c2sc(C(=O)NCCCN3CCOCC3)cc12	1	5
N#CC1C(=N)Oc2nc(C(F)(F)F)[nH]c2C1c1cccnc1 (stereo not drawn)	0	0
Cc1nc(CCNC(=O)c2cc(-c3cnn(C)c3C)n[nH]2)sc1C	5	-1
CCN(CC)Cc1cnc2c(C(=O)NC3CCc4ccccc43)cnn2c1 (stereo not drawn)	-1	3
Clc1ccc(Nc2c(-c3ccsc3)nc3ncccn23)cc1	0	-3
CN(C(=O)CC1C(=O)NCCN1Cc1ccoc1)C1CCOCC1 (stereo not drawn)	-1	-7
CCCCS(=O)(=O)N1CCC(c2nc(-c3ccccc3F)no2)CC1	2	8
O=C(O)COc1cccc(CN2CCOC(c3ccc(F)cc3)C2)c1 (stereo not drawn)	5	-1
CCOc1ccc(C2(CNc3ccc(C#N)cn3)CCOCC2)cc1	-6	-7

The closing 5 records of the part before come first, to join the parts.
SMILES	NPYLR7 agonist	NPYLR7 agonist max-min
Clc1ccc(Nc2c(-c3ccsc3)nc3ncccn23)cc1	0	-3
CN(C(=O)CC1C(=O)NCCN1Cc1ccoc1)C1CCOCC1 (stereo not drawn)	-1	-7
CCCCS(=O)(=O)N1CCC(c2nc(-c3ccccc3F)no2)CC1	2	8
O=C(O)COc1cccc(CN2CCOC(c3ccc(F)cc3)C2)c1 (stereo not drawn)	5	-1
CCOc1ccc(C2(CNc3ccc(C#N)cn3)CCOCC2)cc1	-6	-7
CSCC(=O)N1CCCC(C(=O)c2ccc(-c3ccccc3)c(F)c2)C1 (stereo not drawn)	14	3
COc1cc(-c2cccs2)cc2c1OCCN(Cc1cc(=O)[nH]c(=O)[nH]1)C2	8	1
Cc1nc(-c2ccc(NC(=O)NCC(C)Cn3cccn3)cc2)co1 (stereo not drawn)	1	-1
Cc1nn(CC(=O)N(C)CC(=O)Nc2ccc(Cl)c(Cl)c2)c(C)c1[N+](=O)[O-]	-1	-4
CC(C)CN(CC(N)=O)S(=O)(=O)c1ccc(C#N)cc1	9	4
CC(=O)c1cccc(OCC(=O)c2cc(C)n(-c3nccs3)c2C)c1	4	0
Cc1noc(-c2cccc(F)c2)c1C(=O)NCc1ccc2c(c1)OCO2	8	22
CCCNc1nnc(S(=O)(=O)Cc2nc3ccccc3s2)s1	0	12
Oc1ccc(Br)cc1C=Nn1cc(-c2ccccc2)[nH]c1=S	-8	-8
CN(Cc1nccn1C)CC1CCN(CCc2ccc(Cl)cc2)CC1	6	-1
O=C(CCC1CCCO1)NCC(=O)N1CCN(c2ccc(Cl)cc2)CC1 (stereo not drawn)	1	1
CCCC(=O)N1CCC(N2CCN(c3nccc(NCC)n3)CC2)CC1	21	9
COc1cccc(CN2CCn3nc(C(=O)NCCCN4CCCCC4C)cc3C2=O)c1 (stereo not drawn)	11	9
Cc1ccc(CN(C)C(=O)c2[nH]nc(N)c2-c2ccccc2)o1	-11	-15
CN1CCN(C(=O)c2ccccc2NC(=O)c2cccnc2)CC1	-13	-18
O=C(c1ccccc1C1CCNC1)N1CCS(=O)(=O)CC1 (stereo not drawn)	18	16
COC(=O)NCC(=O)N1CCc2cc(Cl)cc(Cl)c2C1	1&-24	0&-25
COc1cc2c(cc1OC)C1CN(S(=O)(=O)c3c(F)cc(F)cc3F)CC(=O)N1CC2 (stereo not drawn)	1	13
CC(=O)COc1ccccc1-n1c(C)c(C)n2c3c(=O)n(C)c(=O)n(C)c3nc12	-2	-3
Cc1cccc(Nc2ccc(C(=O)O)cc2[N+](=O)[O-])c1	-5	-7
C=CCNC(=O)CSc1cc([N+](=O)[O-])cc(S(=O)(=O)Cc2ccccc2)c1	1	6
O=C(CCn1cnc2ccccc2c1=O)N1Cc2cnn(CCO)c2C1	9	10
O=C(CCC1CCN(CCCC(F)(F)F)CC1)Nc1ccccc1Cl	3	4
CCCCN(C)C(=O)c1cc(C2CC2)nc2c1nc1n2CCCCC1	9	4

In the list so far, these contain a tert-butyl group:
SMILES	NPYLR7 agonist	NPYLR7 agonist max-min
COc1cccc(CNC(=O)C2CCN(C(=O)[C@@H](C)NC(=O)Nc3c(C)cccc3C(C)(C)C)CC2)c1	12	18
CC(C)(C)c1ccc(Cn2cnc([N+](=O)[O-])n2)cc1	11	4

Remaining list, next part
SMILES	NPYLR7 agonist	NPYLR7 agonist max-min
COc1ccc(OC)c(CN2CCN(c3ncnc4[nH]ccc34)CC2)c1	0	-2
Cc1cc(C)n(Cc2ccc(C(=O)N3CCCC(O)(CO)C3)cc2)n1 (stereo not drawn)	3	1
CC1=Nn2c(Cn3c(C)nc4ccccc43)nnc2SC1	3	3
CCCCCCc1ccc(C(=O)N(CCOC)CC(=O)N2CCc3sccc3C2c2ccc(C)cc2)cc1 (stereo not drawn)	-3	3
COc1ccc(CN2CCCn3cccc3C2c2ccc(Cl)cc2)c(OC)c1 (stereo not drawn)	-2	2
CS(=O)(=O)c1cccc(OCC(=O)N2CCCCc3ccccc32)c1	6	5
NC(=O)C1CN(C(=O)c2ccccc2OCc2ccc(Cl)cc2Cl)CCO1 (stereo not drawn)	6	4
Cc1ccc2[nH]c3c(c2c1)CN(C(=O)C1=NN(C2CCS(=O)(=O)C2)C(=O)CC1)CC3 (stereo not drawn)	3	2
O=c1oc(C=Cc2ccco2)nc2sc3c(c12)CCCC3	-2	-8
O=C1CCC([N+](=O)[O-])C(c2ccc(Br)cc2)N1 (stereo not drawn)	-9	-15
COc1ccc(C(=O)NCCn2cc(SCC(=O)N3CCOCC3)c3ccccc32)cc1	-6	-7
CCOC(=O)c1c(NC(=O)Cn2nc(C(F)(F)F)cc2C)sc(C)c1C	-1	-4
Cc1ccccc1N1CC(O)(c2cccs2)[N+]2=C1CCCCC2 (stereo not drawn)	-4	-4
O=C(N1CCN(c2ncnc3c2nnn3-c2ccccc2)CC1)C12CC3CC(CC(C3)C1)C2	-10	-16
COc1ccccc1C(=O)N(Cc1ccc(OS(=O)(=O)c2cccc(C(F)(F)F)c2)cc1)Cc1ccco1	16	15
CC(=O)Nc1nnc(C)s1	-8&2	-13&1
O=c1c2cc(F)ccc2ncn1CCN1CCC(O)CC1	3	0
CC1CN(C(=O)CNC2CCc3ncnn3C2)CCO1 (stereo not drawn)	8	6
CC(C)(C)OC(=O)N1CCN(c2nc(-c3ccccc3)c3cc(Br)ccc3n2)CC1	-5	-10
CC(C)(C)c1cc(NC(=O)C2(C)CCN2C(=O)c2ccccc2CCc2ccccc2)no1 (stereo not drawn)	0	-1
Cn1cccc1CN(CC(O)COCc1ccco1)CC1CCCO1 (stereo not drawn)	26	33
COc1ccc(-c2cnc3ncnn3c2N2CCN(C(=O)c3ccc4nonc4c3)CC2)cc1	4	-1
Cc1ccccc1CNC(=O)CSc1nnc(C23CC4CC(CC(C4)C2)C3)o1	0	0
CCc1ccc(-c2c(-c3ccccc3)ncn2CC2CCS(=O)(=O)C2)o1 (stereo not drawn)	9	5
Cc1cc(C(=O)OCC(=O)c2ccc3ccccc3c2)c2ccccc2n1	7	7
CCOc1ccc(OCC(=O)NCCc2nnc3ccccn23)cc1	3	7
Cc1cccc(-c2nnc(SCC(=O)N3CCCC3)n2CC(N)=O)c1	4	2
Cc1ccc(C(=O)NCC(=O)N(C)Cc2ccccc2C)s1	-25	-27
CC(C(=O)NC(C)(C)C)S(=O)Cc1cc(Cl)c2c(c1)OCCO2 (stereo not drawn)	-3	-5
COc1cccc2c(SC)nccc12	2	-1
CC1=NOC(C(=O)NCCC(=O)Nc2ccc(C)cc2C)C1 (stereo not drawn)	1	10
O=C(CSc1nnc(-c2ccccc2)n1-c1ccccc1)N/N=C\c1cccc(Oc2ccccc2)c1	-4	-9

5 entries drawn at random from the list so far, as already listed:
SMILES	NPYLR7 agonist	NPYLR7 agonist max-min
Cc1cccc(-c2nnc(SCC(=O)N3CCCC3)n2CC(N)=O)c1	4	2
CCOc1ccc(OCC(=O)NCCc2nnc3ccccn23)cc1	3	7
O=C(CSc1nnc(-c2ccccc2)n1-c1ccccc1)N/N=C\c1cccc(Oc2ccccc2)c1	-4	-9
Cc1ccc(C(=O)NCC(=O)N(C)Cc2ccccc2C)s1	-25	-27
COc1cccc2c(SC)nccc12	2	-1

In the list so far, these contain a COOH group:
SMILES	NPYLR7 agonist	NPYLR7 agonist max-min
O=C(O)COc1cccc(CN2CCOC(c3ccc(F)cc3)C2)c1 (stereo not drawn)	5	-1
Cc1cccc(Nc2ccc(C(=O)O)cc2[N+](=O)[O-])c1	-5	-7

High-throughput results: PubChem BioAssay, Fisher Drug Discovery Resource Center

These rows are one share of the data; rates above refer to the full screens.
